# Screening data deposited in PubChem by National Center for Advancing Translational Sciences (NCATS).
# CtBP-E1A blk = qHTS Assay for Inhibitors of the CtBP/E1A Interaction | AID 651724, 2012 | activity change, % (concentration not given with the values) | AlphaScreen GST-E1A/His-CtBP binding, 1536-well; stronger effect = lower value; control for the full effect not named in the record | CtBP / adenovirus E1A interaction (AlphaScreen) | 340,000 tested, 0.49% active; in the data active means activity change below about -65%; inconclusive means about -30% to -65%; inactive means above about -30%; further: on the % scale 0 is the no-effect control and ±100 the full control effect
#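 In 5 uL wells, 23 nL compound meets equimolar GST-E1A and His-CtBP (5X stock 125 nM each) for 2 h, 37 °C. Beads (5X, 50 ug/mL) then 1 h, 37 °C, dark.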
# D2 agonist = Beta-Arrestin HTS for Positive Allosteric Modulators of the Human D2 Dopamine Receptor: Agonists | activation, % (test concentration not listed) | DiscoveRx PathHunter D2 beta-arrestin, luminescence, 90 min; 100% = 57 uM dopamine signal | D(2) dopamine receptor (Homo sapiens), P14416 | 360,000 tested, 0.084% active; in the data active = activation above about 40%; inconclusive = about 15% to 40%; inactive = below about 15%; further: compound concentration not given in the record; the text of the record calls up to 30% inactive
# Target sequence (P14416 whole entry, looked up): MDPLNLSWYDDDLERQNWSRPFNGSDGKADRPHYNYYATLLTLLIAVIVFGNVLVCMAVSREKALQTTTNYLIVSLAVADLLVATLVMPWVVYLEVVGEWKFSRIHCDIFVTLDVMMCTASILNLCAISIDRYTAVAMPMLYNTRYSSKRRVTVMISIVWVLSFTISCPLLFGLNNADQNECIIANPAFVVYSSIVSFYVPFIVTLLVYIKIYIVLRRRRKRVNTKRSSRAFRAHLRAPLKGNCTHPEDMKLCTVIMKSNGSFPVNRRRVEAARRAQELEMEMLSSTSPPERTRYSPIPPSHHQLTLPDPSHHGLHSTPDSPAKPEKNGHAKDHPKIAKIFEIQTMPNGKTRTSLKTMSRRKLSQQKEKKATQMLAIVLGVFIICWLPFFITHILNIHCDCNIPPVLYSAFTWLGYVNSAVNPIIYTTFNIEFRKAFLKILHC
#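 Agonist mode: compounds alone added to overnight-plated D2 PathHunter cells for 90 min at 37 C, with 57 uM final dopamine (EC100) defining full response. Beta-arrestin recruitment detected by chemiluminescent reagent, read after 1 h at ambient temperature.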
# TRPML1 blocker = qHTS for Inhibitors of the Human Mucolipin Transient Receptor Potential 1 (TRPML1); AID 624415, 2012; activity change, negative = inhibition, % (no concentration beside the values); TRPML1-inducible cells, Ca2+ dye fluorescence, FDSS; stronger effect = lower value; inhibition of EC80 agonist-evoked calcium signal; Mucolipin-1 (Homo sapiens), Q9GZU1; 390,000 tested, 0.02% active; in the data active means activity change below about -50%; inconclusive means about -30% to -50%; inactive means above about -30%;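 further: stimulus is agonist 54-4 at its EC80 concentration; on the % scale 0 is the no-effect control and ±100 the full control effect; compound concentration not given in the record; the text of the record puts the active cut at -80%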
# Target sequence (Q9GZU1 whole entry, looked up): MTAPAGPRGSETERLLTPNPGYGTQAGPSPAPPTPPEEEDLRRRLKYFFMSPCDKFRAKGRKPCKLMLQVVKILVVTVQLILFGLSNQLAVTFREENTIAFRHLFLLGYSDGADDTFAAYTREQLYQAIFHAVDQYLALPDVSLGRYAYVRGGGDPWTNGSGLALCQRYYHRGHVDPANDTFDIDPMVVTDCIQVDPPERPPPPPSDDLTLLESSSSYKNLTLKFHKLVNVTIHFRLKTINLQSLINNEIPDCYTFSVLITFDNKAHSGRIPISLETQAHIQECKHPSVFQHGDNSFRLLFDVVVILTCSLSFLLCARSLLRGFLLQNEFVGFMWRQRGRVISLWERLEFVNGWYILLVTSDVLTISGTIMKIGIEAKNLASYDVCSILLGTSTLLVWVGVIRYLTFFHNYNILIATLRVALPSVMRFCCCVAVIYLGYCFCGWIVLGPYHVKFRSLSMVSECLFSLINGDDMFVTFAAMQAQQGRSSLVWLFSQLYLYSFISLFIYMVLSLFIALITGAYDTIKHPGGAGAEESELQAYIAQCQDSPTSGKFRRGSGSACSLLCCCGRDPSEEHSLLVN
#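 TRPML1-DL cells, Tet-induced overnight (~16 h, 37 °C) at 1,500 cells/well, were loaded with Ca8 no-wash dye plus quencher for 45-90 min at room temperature. Compounds were pinned during FDSS kinetic reading; agonist 54-4 at EC80 (4 uM final) then added.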
# Six1-Eya2 inh = qHTS Assay for Inhibitors of the Six1/Eya2 Interaction | 360,000 tested, 0.56% active | AlphaScreen GST-Six1/His-Eya2 binding, biochemical; stronger effect = lower value; control for the full effect not named in the record | activity change, % (test concentration not listed) | Homeobox protein SIX1 (Homo sapiens) + Protein phosphatase EYA2 (Homo sapiens), … | AID 651725, 2012; in the data active = activity change below about -65%; inconclusive = about -30% to -65%; inactive = above about -30%; further: on the % scale 0 is the no-effect control and ±100 the full control effect; compound concentration not given in the record
#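 AlphaScreen luminescence read after one hour at 37 °C in darkness. Pin-transferred compounds met GST-Six1 and His-Eya2 protein (5X stock 250 nM/500 nM) plus glutathione donor and Ni-chelate acceptor beads (5X, 50 ug/mL).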
# PINK1 modulator = A Quantitative High throughput Screen to Identify Chemical Modulators of PINK1 Expression; PINK1 immunofluorescence, high-content cytometry, 24 h; Potency, µM (top dose mostly 76.6 µM), for the others: at the top dose activation (PINK1 increase), usual class: activators; 410,000 tested, 0.2% active; AID 624263, 2012; active = well fitted activation curve with a large enough effect; inconclusive = small, poorly fitted or top-dose-only effect; inactive = flat fitted curve, though single readings scatter; cell line not stated here;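 further: potency means the concentration at half of the fitted maximal effect; % of control where 0% means no effect; nearly all actives have a fitted effect of over 65% in size; a mitochondrial uncoupler was the plate control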
#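 PINK1 protein, normally rapidly degraded, was detected by immunofluorescence after 24 hour compound treatment of a stable cell line. Titration data (5 concentrations) came from laser-scanning cytometry, with CCCP-treated wells as controls.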
# TRPML1 agonist = qHTS for Agonists of the Human Mucolipin Transient Receptor Potential 1 (TRPML1); TRPML1-expressing cells, Ca2+ dye fluorescence, FDSS; host cell line not named in the record; reference of the full effect not given here; AID 624414, 2012; 410,000 tested, 0.12% active; Mucolipin-1 (Homo sapiens), Q9GZU1; activation, % (test concentration not listed); in the data active = activation above about 50%; inconclusive = about 30% to 50%; inactive = below about 30%; further: 0% is about no effect; the text of the record puts the active cut at 80%
#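 In this qHTS format, compounds were pin-transferred onto Ca8-dye-loaded TRPML1-DL cells induced with Tet overnight, and intracellular Ca2+ fluorescence was recorded kinetically for 110 s after a 10 s baseline. A subsequent 4uM final 54-4 (EC80) addition followed by a second 110 s read served as the antagonist phase.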
# Active calls of the source: *; u = inconclusive; x = not tested or not shown; [ ] = dose if it differs, or a comment. A portion of the library; the hit share may differ from the screen's.
# The opening 4 entries, to show the layout:
structure	PINK1 modulator	TRPML1 blocker	D2 agonist	Six1-Eya2 inh	CtBP-E1A blk	TRPML1 agonist
Cc1cc(/C=C2\C(=O)NC(=O)N(Cc3ccccc3Cl)C2=O)c(C)n1-c1ccc(C(=O)O)cc1	0.2%	4	-3.8	-16	2	-1.0
CCCCn1nnnc1C(C1CC1)N1CCC2(CC1)C(=O)NCN2c1ccccc1 (stereo not drawn)	3.6%	x	-5.9	-4	0	1.5
CCn1c(C)c(C(=O)O)c2cc(OC)ccc21	-0.7%	-2	-3.7	2	4	-0.8
CCOc1cc2c(cc1OCC)-n1cccc1C(c1c(O)cccc1OC)NC2 (stereo not drawn)	0.3%	4	-0.5	u	-29	1.8

# Results, repeating the preview:
structure	PINK1 modulator	TRPML1 blocker	D2 agonist	Six1-Eya2 inh	CtBP-E1A blk	TRPML1 agonist
Cc1cc(/C=C2\C(=O)NC(=O)N(Cc3ccccc3Cl)C2=O)c(C)n1-c1ccc(C(=O)O)cc1	0.2%	4	-3.8	-16	2	-1.0
CCCCn1nnnc1C(C1CC1)N1CCC2(CC1)C(=O)NCN2c1ccccc1 (stereo not drawn)	3.6%	x	-5.9	-4	0	1.5
CCn1c(C)c(C(=O)O)c2cc(OC)ccc21	-0.7%	-2	-3.7	2	4	-0.8
CCOc1cc2c(cc1OCC)-n1cccc1C(c1c(O)cccc1OC)NC2 (stereo not drawn)	0.3%	4	-0.5	u	-29	1.8
COC(=O)C1=C(c2ccc3ccccc3c2)C[C@@H]2CC[C@H]1N2C(=O)NC(C)C	-0.3%	-10	-1.4	2	4	0.1
COC(=O)C1=C(c2cccc(OCc3ccccc3)c2)C[C@@H]2CC[C@H]1N2C(=O)NCCCc1ccccc1	-0.8%	-5	-5.0	2	-3	6.3
CC(C)CN1CCN(Cc2ccc(C(F)(F)F)cc2)CC1CCO (stereo not drawn)	1.5%	7	-3.0	-3	-5	-0.8
COc1ccccc1-n1c(O)c(C=NC2CC2)c(=O)[nH]c1=O	x	17	-0.5	1	8	0.0
C=CCc1ccc(OC)cc1	0.1%	1	-0.1	-4	-1	-0.1
CC1CCCCN1CC(O)c1c[nH]c2ccccc12 (stereo not drawn)	-0.1%	0	-1.5	5	5	-1.0
C/C(=N\NC(=O)c1ccccc1)c1c(O)n(Cc2ccccc2)c(=O)[nH]c1=O	-0.5%	28	2.2	-10	-2	2.4
O=C(COc1ccc2ccccc2c1)N1CCN(C2CCN(Cc3ccccc3)CC2)CC1	-1.7%	9	-3.1	-9	-3	-0.5
O=C(c1cccc(Cl)c1)C1CCCN(Cc2ccon2)C1 (stereo not drawn)	1.1%	15	-4.8	8	x	-0.3
COc1cccc(-n2c(/C=C/c3ccccn3)nc3ccccc3c2=O)c1	2.1%	-16	-2.8	6	6	2.9
CN1C2CCC1C(C(=O)O)C(OC(=O)c1ccccc1)C2 (stereo not drawn)	1.5%	4	-4.0	0	-3	-0.5
Cc1cc(=O)oc2cc(OCC(=O)N3CCN(C(C)c4ccccc4)CC3)c(Cl)cc12 (stereo not drawn)	-0.8%	27	1.1	-2	x	-0.4
Cn1cc(C(=O)OCC(=O)N2CCCC2)c2ccccc21	-0.2%	-10	-2.1	3	-6	0.2
COc1ccc(NC(=O)c2cn(CCC#N)nc2-c2cccc([N+](=O)[O-])c2)cc1	1.2%	-6	2.3	-4	-8	1.0
CC(=O)c1c(C)n(CC2CCCO2)c2ccc(O)cc12 (stereo not drawn)	-0.4%[38.3 µM]	38	-2.1	1	6	0.1
COc1ccc(S(=O)(=O)N2Cc3cnnn3-c3ccccc3C2C#N)cc1 (stereo not drawn)	-0.2%	-21	-3.6	6	4	1.0
O=c1c2ccccc2nc(/C=C/c2cccc3ccccc23)n1-c1ccccc1Cl	2.0%	15	x	x	x	0.5
CCOC(=O)N(C)c1ccc(C(O)(C(=O)OC)C(F)(F)F)cc1 (stereo not drawn)	0.6%	8	-1.0	0	6	-0.6
O=C(Nc1nc2c(Cl)cccc2s1)c1ccc(S(=O)(=O)N2CCc3ccccc32)cc1	u	-5	x	x	x	-0.5
Cc1sc2ccccc2c1CC1=NCCN1	0.1%	13	-3.4	5	-23	1.2
NC1=C([N+](=O)[O-])C(c2ccc3c(c2)OCO3)c2c(c3ccccc3oc2=O)O1 (stereo not drawn)	-1.5%	-6	-0.3	6	-11	1.0
CN(C)CCNC(=O)c1cccn(Cc2cccc(C(F)(F)F)c2)c1=O	0.0%	-9	-3.1	-3	x	-0.6
C[C@H](NC(=O)N1C[C@H]2C[C@@H](C1)c1cccc(=O)n1C2)C(=O)Nc1cccc(F)c1	0.2%	x	6.8	4	11	x
Cc1ccc(C)c(NC(=O)CCNC(=O)N2C[C@H]3C[C@@H](C2)c2cccc(=O)n2C3)c1	-0.7%	x	-2.8	1	4	x
COc1ccc(C[C@H]2NC[C@H](O)[C@H]2OC(C)=O)cc1	-1.2%	5	-3.6	3	3	0.0
Cn1c(O)c(C(=Nc2ccc(F)cc2)c2ccccc2)c(=O)n(C)c1=O	-0.8%	1	0.6	-18	-16	-0.4

# Looked up above.
# CCOc1cc2c(cc1OCC)-n1cccc1C(c1c(O)cccc1OC)NC2 (stereo not drawn) | CtBP-E1A blk = -29
# COc1ccc(C[C@H]2NC[C@H](O)[C@H]2OC(C)=O)cc1 | CtBP-E1A blk = 3
# COc1ccccc1-n1c(O)c(C=NC2CC2)c(=O)[nH]c1=O | TRPML1 agonist = 0.0

# Returning to the listing, starting two compounds before the break.
structure	PINK1 modulator	TRPML1 blocker	D2 agonist	Six1-Eya2 inh	CtBP-E1A blk	TRPML1 agonist
COc1ccc(C[C@H]2NC[C@H](O)[C@H]2OC(C)=O)cc1	-1.2%	5	-3.6	3	3	0.0
Cn1c(O)c(C(=Nc2ccc(F)cc2)c2ccccc2)c(=O)n(C)c1=O	-0.8%	1	0.6	-18	-16	-0.4
CCc1cc(=O)oc2cc(OCC(=O)N3C[C@H]4C[C@@H](C3)c3cccc(=O)n3C4)ccc12	0.7%	x	-3.7	-2	0	x
Cc1cc[n+](Cc2ccccc2)cc1	-0.8%	-6	-3.7	10	-2	-0.3
COC(=O)C1=C(c2ccccc2)C[C@@H]2CC[C@H]1N2C(=O)NCc1ccc(F)cc1	3.2%	-17	-1.7	4	0	-0.5
CC(=O)OC(C)(C)/C=C/C(=O)[C@](C)(O)[C@H]1[C@H](O)C[C@@]2(C)[C@@H]3CC=C4[C@H](C[C@H](O)C(=O)C4(C)C)[C@]3(C)C(=O)C[C@]12C	-0.1%	-13	-3.8	-1	0	-0.4
Cn1c(O)c(C=NC2C(=O)C3(C)CCC2C3(C)C)c(=O)n(C)c1=O (stereo not drawn)	0.4%	-6	2.4	19	7	-0.6
Cc1[nH]c2ccccc2c1C(=O)CN1CC=C(c2ccccc2)CC1	4.2%	3	-3.1	2	-11	-0.3
CCN1C[C@@]2(COC)C3[C@@H](OC)[C@H]4[C@@H]1[C@@]3(C1C[C@@]3(O)[C@H](OC(=O)c5ccccc5)C1[C@]4(OC(C)=O)[C@@H](O)[C@H]3OC)[C@@H](OC)C[C@H]2O (stereo partly drawn)	1.1%	-6	-5.4	1	2	-1.0
O=C1C=C2c3ccccc3CC(C(=O)O)C2CC1 (stereo not drawn)	2.0%	x	-4.5	5	-1	-0.4
O=C1NCCCCC1(Cl)Cl	4.0%	-11	0.3	7	3	1.7
C=C1C[C@]2(O)[C@@]3(C)CCC(=O)C(C)(C)C3=C(O)C(=O)[C@@]2(C)[C@@H]2C(=O)O[C@@](C)(C(=O)OC)C(=O)[C@@]12C	0.2%	x	-5.0	5	4	x
CCCCn1c(O)c(C(C)=NCC2CCCO2)c(=O)[nH]c1=O (stereo not drawn)	0.4%	-6	-2.8	0	5	-0.8
FCCN(CCF)c1cccc(Cl)c1	1.1%	10	-0.1	10	8	0.6
CCOC(=O)C1(CCc2ccccc2)CCN(Cc2ccco2)CC1	8.0%	53	-2.3	1	-2	2.0
CC1CN(c2cc([N+](=O)[O-])ccc2Cl)CC(C)N1 (stereo not drawn)	0.8%	-11	-3.1	3	-4	0.0
Cc1ccc2[nH]c(=S)n(-c3cccnc3)c(=O)c2c1	-1.6%	2	8.6	1	5	0.2
CCn1cc(/C=c2/sc3n(c2=O)C2c4ccccc4OC(C)(N=3)C2C(=O)OC)c(C)n1 (stereo not drawn)	0.4%	-5	1.4	0	0	0.9
O=C(c1ccc(CNS(=O)(=O)c2ccc(Br)cc2)cc1)N1CCC2(CC1)OCCO2	0.9%	5	-2.1	2	3	-0.9
Cc1ccc(C(=O)C2CN3CCC2CC3)cc1 (stereo not drawn)	-1.8%	-7	-3.5	1	-2	-0.6
Cc1ccccc1NC(=O)c1cc(-c2ccccc2)n(CCCN2CCOCC2)c1C	-0.2%	8	-1.0	-11	-2	0.1
FC(F)(F)c1ccc2c(c1)nnn2C1CCN(Cc2nnnn2Cc2ccccc2)CC1	0.6%	1	1.0	1	0	0.2
C[N+]1(C)C2CC(OC(=O)C(CO)c3ccccc3)CC1C1OC12 (stereo not drawn)	1.0%	28	-3.3	6	-13	0.3
COc1ccc(N2C(=O)NC(=O)/C(=C\c3ccccc3[N+](=O)[O-])C2=O)cc1	4.8%	12	2.0	-2	11	-0.4
O=C1NC(=O)C(CCc2ccncc2)(CCc2ccncc2)C(=O)N1CCc1ccccc1	-0.9%	u	2.8	0	0	1.9
CCC1(c2cccc(O)c2)CCCCN(C)C1 (stereo not drawn)	-0.4%	-4	-2.4	5	0	1.3
